# Cruzain inh noDet – blocks cruzain activity in detergent-free assay; P25779; purified cruzain, Z-FR-AMC fluorescence, no detergent; Potency, µM, for inactives: max response, negative = inhibition, actives largely listed as inhibitors; actives 2.3% (n = 200,000);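 further: plate controls were enzyme without inhibitor for no effect and buffer without enzyme for full effect; nearly all actives have a fitted effect of over 40% in size; top concentration of the series not given in the record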
# Target sequence (P25779 123-467 limits assumed): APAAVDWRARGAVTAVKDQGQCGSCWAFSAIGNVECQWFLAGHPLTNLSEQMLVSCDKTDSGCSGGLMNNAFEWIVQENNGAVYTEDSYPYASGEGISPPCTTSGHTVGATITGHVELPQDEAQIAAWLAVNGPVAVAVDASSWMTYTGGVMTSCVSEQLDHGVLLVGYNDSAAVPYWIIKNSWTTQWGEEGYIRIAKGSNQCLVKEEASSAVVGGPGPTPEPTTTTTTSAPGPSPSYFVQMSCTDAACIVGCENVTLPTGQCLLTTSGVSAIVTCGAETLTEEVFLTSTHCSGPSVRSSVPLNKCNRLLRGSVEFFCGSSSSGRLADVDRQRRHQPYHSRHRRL
#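 Purified cruzain at 1.5 nM, pre-incubated 15 min with compound at room temperature in 100 mM sodium acetate pH 5.5, 5 mM DTT, 0.00005% Triton X-100. Reaction started with 2 uM Z-FR-AMC; AMC fluorescence increase over 60 s gives rate.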
# NS1 inh – blocks influenza NS1 protein function | S. cerevisiae slowed by influenza A NS1, growth recovery by OD600 | Potency, µM (series often up to 46.1 µM), inactives show at the top dose activity, positive = more growth | actives 0.4% (n = 270,000); active means well fitted rising curve with a large enough effect; inconclusive means small, poorly fitted or top-dose-only effect; inactive means no such curve, though single readings can be large or run the other way; further: nearly all actives have a fitted effect of over 50% in size
#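 S. cerevisiae expressing influenza A NS1, grown in glucose, washed, then diluted 1:100 into pH 6.0 -URA galactose medium with 23 nl compound. Growth recovery read as OD600; NS1-free strain serves as control.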
# Cruzain Triton – blocks cruzain activity in presence of Triton detergent. actives 0.43% (n = 200,000). purified cruzain, Z-FR-AMC fluorescence, 0.01% Triton. Potency, µM, for the others: max response, negative = inhibition, usual class: inhibitors;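 further: plate controls were neutral wells for no effect and buffer without enzyme for full effect; nearly all actives have a fitted effect of over 40% in size; top concentration of the series not given in the record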
#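 Cysteine protease activity tested under reducing, mildly acidic conditions (100 mM sodium acetate pH 5.5, 5 mM DTT) plus 0.01% Triton X-100. Cruzain 1.5 nM; substrate Z-FR-AMC 2 uM; 15 min compound preincubation at room temperature.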
# SARS PLpro yeast – blocks SARS-CoV papain-like protease in a yeast assay; S. cerevisiae expressing SARS-CoV PLpro, growth rescue; control for the full effect not named in the record; Potency, µM (series often up to 32.9 µM), for inactives: at the top dose activity, positive = growth rescue; actives 0.19% (n = 330,000); active means well fitted rising curve with a large enough effect; inconclusive means small, poorly fitted or top-dose-only effect; inactive means no such curve, though single readings can be large or run the other way; further: 0% is about no effect; nearly all actives have a fitted effect of over 55% in size; growth read by luminescence after 48 h
# Marburg entry inh – blocks Marburg virus binding to or entry into cells | Marburg virus pseudotyped entry inhibition, cell reporter; control for the full effect not named in the record; about a third of the inactives were read at about 46 µM | actives 1.8% (n = 300,000) | Potency, µM (doses to about 37.8 µM), for the others: at the highest dose activity change, negative = inhibition, usual class: inhibitors; active = well fitted inhibition curve with a large enough effect; inconclusive = small, poorly fitted or top-dose-only effect, or effect the other way; inactive = flat fitted curve, though single readings scatter; tested in HEK293 cells; about a fifth of its hits are not listed in these tables; further: on the % scale 0 is the no-effect control and ±100 the full control effect; luciferase read-out
# 2A StopGo – FMDV 2A StopGo reporter, luciferase signal. human cells with a luciferase reporter of 2A StopGo recoding; control for the full effect not named in the record. Potency, µM (highest dose often 57.9 µM), for the others: top-dose signal change, negative = less light. actives 1.2% (n = 410,000); active = well fitted falling curve with a large enough effect; inconclusive = small, poorly fitted or top-dose-only effect; inactive = no such curve, though single readings can be large or run the other way; tested in HEK293T cells; further: on the % scale 0 is the no-effect control and ±100 the full control effect; nearly all actives have a fitted effect of over 45% in size; luciferase light after 4 h
# Lassa entry inh – inhibitors of Lassa virus binding or cell entry | Potency, µM (top dose mostly 37.9 µM), for the others: at the highest dose activity change, negative = inhibition, hits mostly inhibitors | Lassa virus pseudotype entry inhibition, cell reporter; control for the full effect not named in the record | actives 1.2% (n = 300,000); active means well fitted inhibition curve with a large enough effect; inconclusive means small, poorly fitted or top-dose-only effect, or effect the other way; inactive means flat fitted curve, though single readings scatter; tested in HEK293 cells; further: on the % scale 0 is the no-effect control and ±100 the full control effect; nearly all actives have a fitted effect of over 50% in size; luciferase read-out
# RE007 growth inh – less growth of the S. pombe RE007 Vpr strain. actives 0.21% (n = 360,000). S. pombe RE007 Vpr strain, BacTiter-Glo ATP luminescence, 24 h; control for the full effect not named in the record. AID 651644. Potency, µM (top dose mostly 92.2 µM), for the others: at the top dose activity change, negative = less growth; active = well fitted falling curve with a large enough effect; inconclusive = small, poorly fitted or top-dose-only effect; inactive = no such curve, though single readings can be large or run the other way;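 further: on the % scale 0 is the no-effect control and ±100 the full control effect; nearly all actives have a fitted effect of over 50% in size; the assay follows cell death caused by Vpr and the record does not say whether a fall means rescue or toxicity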
#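 Fission yeast RE007 carrying one integrated HIV-1 vpr copy, seeded at OD 0.01 in PMG+AL medium with 23 nL pinned compound. Grown 24 h at 30 degrees; viability read by BacTiter-Glo luminescence after 5 min.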
# Starred values were filed as active, the others as inactive; ? = inconclusive; / = no result given; [ ] = dose if it differs, or a comment. Unless noted, the call rests on the fitted dose curve; in most records, active means well fitted curve in the direction sought with a large enough effect; inconclusive means small, poorly fitted or top-dose-only effect, or another doubt; inactive means no such curve, though single readings can be large; an effect the other way counts as inactive or inconclusive. Potency means the concentration at half of the fitted maximal effect.
entry	SMILES	SARS PLpro yeast	Cruzain inh noDet	2A StopGo	Cruzain Triton	Marburg entry inh	RE007 growth inh	NS1 inh	Lassa entry inh
1	CCOC(=O)c1c(NC(=O)CC2SC(N)=NC2=O)sc2c1CCCC2 (stereo not given)	-3.6%	?	/	-9.2%	12.5%	7.8%	9.3%	11.7%
2	N=C1/C(=C/c2ccc(-c3cccc(C(=O)O)c3)o2)C(=O)N=C2SC(CC(=O)N3CCOCC3)=NN12	34.0%	/	-5.8%	/	/	20.5%	9.8%	/
3	Cc1ccccc1C(=O)Nc1cccc(C(=O)N/N=C/c2ccccn2)c1	-2.0%	/	8.3%	/	16.3%[46.1 µM]	11.5%	-4.2%	11.4%
4	CCOC(=O)Cn1cc(-c2ccccc2)nn1	-0.8%	9.9%	16.1%	4.4%	6.3%	10.4%	-6.1%	-2.3%
5	CCN(CC)C(=O)COC(=O)c1cc(-c2ccco2)nc2ccccc12	-0.8%	/	4.2%	/	?	0.3%	/	-3.7%
6	C=CCn1c(SCC(=O)Nc2sccc2C(N)=O)nc2ccc(Cl)cc2c1=O	8.5%	?	?	-10.1%	?	6.0%	-2.6%	?
7	Cc1cccc(-c2noc(-c3cc4ccccc4oc3=O)n2)c1	0.2%	-2.2%	-5.3%	2.4%	-1.3%	0.2%	-5.2%	8.1%
8	CCC(=O)Nc1cccc(C2=NOC3(C2)C[C@@H](C(N)=O)N(C(=O)c2cc([N+](=O)[O-])cc([N+](=O)[O-])c2C)C3)c1 (stereo not given in full)	3.7%	/	-3.9%	/	/	9.2%	?	/

# Later entries
entry	SMILES	SARS PLpro yeast	Cruzain inh noDet	2A StopGo	Cruzain Triton	Marburg entry inh	RE007 growth inh	NS1 inh	Lassa entry inh
9	CCOC(=O)C1CCN(C(=O)CCS(=O)(=O)c2ccc3c(c2)CCN3C(=O)CC)CC1	0.4%	/	-18.9%	/	-15.3%	1.0%	/	-17.0%
10	O=C(/C=C/c1ccccc1)N/C(=C/c1ccccc1)C(=O)N1CCOCC1	-12.7%	-7.7%	-15.5%	-4.0%	4.1%	-23.6%	0.3%	-1.0%
11	COC(=O)COc1nsnc1N1CCOCC1	-1.8%	-1.9%	-18.1%	-0.1%	-1.3%	-4.0%	-4.0%	1.6%
12	COc1ccc(NC(=O)CSc2nnc(CNC(=O)c3cccs3)o2)c(OC)c1	-2.4%	/	0.0%	/	10.0%	1.9%	14.4%	0.6%
13	O=C(Cn1nc(Cc2cccnc2)c2ccccc2c1=O)Nc1ccc(F)c(Cl)c1	/	-1.8%	?	-4.9%	?	/	/	-14.8%[46.1 µM]
14	Cc1cc(C)cc(N(CC(=O)NC2CCCC2)C(=O)CCC(=O)Nc2nc(C)cs2)c1	0.6%	/	14.5%	/	-19.6%[46.1 µM]	0.6%	7.3%	-0.2%
15	COc1ccccc1NS(=O)(=O)c1cccc(C(=O)NCc2ccccn2)c1	1.0%	/	-0.7%	/	21.7%	-8.3%	-1.1%	-0.8%
16	c1csc(-c2cn3c(n2)SCC3)c1	-15.1%	-3.7%	37.3%[activator]	-2.3%	6.4%	-21.6%	1.2%	8.5%

# Continued.
entry	SMILES	SARS PLpro yeast	Cruzain inh noDet	2A StopGo	Cruzain Triton	Marburg entry inh	RE007 growth inh	NS1 inh	Lassa entry inh
17	COc1ccc(CNC(=O)c2ccc(N3CCOCC3)c([N+](=O)[O-])c2)cc1	0.5%	/	28.8%	/	-20.1%[46.1 µM]	4.6%	/	-0.9%[46.1 µM]
18	Cc1ccc(C(=O)N2CCC3(CC2)Oc2ccc(Cl)cc2C(=O)C32CC(c3cccnc3)=NO2)s1 (stereo not given)	-1.7%	/	0.0%	/	/	-19.1%	6.5%	/
19	CCCCOc1ccc(S(=O)(=O)NNC(=O)c2cc3ccccc3o2)cc1	-4.1%	-21.4%	-15.9%	-15.0%	-27.8%	-25.1%	1.1%	2.7%
20	COc1ccc(S(=O)(=O)NCC(c2ccc(N(C)C)cc2)N2CCOCC2)cc1 (stereo not given)	/	2.0%	-23.0%	-0.1%	/	/	/	?
21	COc1ccc(Br)cc1CNc1ccccc1	14.3%	/	-5.8%	/	/	14.5%	-10.8%	/
22	CCCCCCOC(=O)c1ccc(NC(=O)c2cc(OC)c(OC)c(OC)c2Br)cc1	6.1%	-1.3%	-15.6%	-0.9%	?	51.9%	?	?
23	O=C(CCCC(=O)N(c1ccc2c(c1)OCCO2)C(C(=O)NC1CCCCC1)c1ccc(Cl)cc1)Nc1ccccn1 (stereo not given)	0.7%	-10.3%	/	2.8%	?	0.4%	2.9%	?
24	O=C(NC1CCCC1)c1ccc2c(=O)n(Cc3ccccc3)c(SCc3ccccc3)nc2c1	/	-7.0%	-16.6%	-0.2%	/	/	/	-16.0%[46.1 µM]

# The final 7 records of the part before are carried over, then new ones follow.
entry	SMILES	SARS PLpro yeast	Cruzain inh noDet	2A StopGo	Cruzain Triton	Marburg entry inh	RE007 growth inh	NS1 inh	Lassa entry inh
18	Cc1ccc(C(=O)N2CCC3(CC2)Oc2ccc(Cl)cc2C(=O)C32CC(c3cccnc3)=NO2)s1 (stereo not given)	-1.7%	/	0.0%	/	/	-19.1%	6.5%	/
19	CCCCOc1ccc(S(=O)(=O)NNC(=O)c2cc3ccccc3o2)cc1	-4.1%	-21.4%	-15.9%	-15.0%	-27.8%	-25.1%	1.1%	2.7%
20	COc1ccc(S(=O)(=O)NCC(c2ccc(N(C)C)cc2)N2CCOCC2)cc1 (stereo not given)	/	2.0%	-23.0%	-0.1%	/	/	/	?
21	COc1ccc(Br)cc1CNc1ccccc1	14.3%	/	-5.8%	/	/	14.5%	-10.8%	/
22	CCCCCCOC(=O)c1ccc(NC(=O)c2cc(OC)c(OC)c(OC)c2Br)cc1	6.1%	-1.3%	-15.6%	-0.9%	?	51.9%	?	?
23	O=C(CCCC(=O)N(c1ccc2c(c1)OCCO2)C(C(=O)NC1CCCCC1)c1ccc(Cl)cc1)Nc1ccccn1 (stereo not given)	0.7%	-10.3%	/	2.8%	?	0.4%	2.9%	?
24	O=C(NC1CCCC1)c1ccc2c(=O)n(Cc3ccccc3)c(SCc3ccccc3)nc2c1	/	-7.0%	-16.6%	-0.2%	/	/	/	-16.0%[46.1 µM]
25	COc1ccc(CCNC(=O)c2cc(Sc3cccc(Cl)c3)nc3ccccc23)cc1OC	/	?	?	0.3%	/	/	/	?
26	CC(C)OCCCN1C(=O)c2[nH]nc(-c3ccccc3O)c2C1c1ccc(OCc2ccccc2)cc1 (stereo not given)	/	?	-5.2%	-4.1%	?	/	/	/
27	Cc1nc2ccccc2c(=O)n1-c1cc(F)ccc1F	-2.2%	/	-14.3%	/	?	12.2%	/	-8.5%
28	Oc1ccc(Cl)cc1CNC1CCCCC1	/	/	-6.9%	/	-3.2%[46.1 µM]	-1.8%	/	17.6%[46.1 µM]
29	COc1cc(OC)c(C2NC(=O)CCC2[N+](=O)[O-])cc1OC (stereo not given)	-2.7%	/	-14.2%	/	/	12.4%	3.6%	/
30	O=C(Nc1nnc(SCc2ccc(F)cc2)s1)c1ccco1	-9.0%	-17.2%	12.0%	1.5%	-10.8%	-16.1%	-121.2%	4.8%
31	CSc1nc(N)n2nc(C(C)(C)C)cc2n1	0.3%	/	26.1%	/	0.2%	7.2%	1.6%	-0.5%
32	Cc1nc2ccccc2c(=O)n1NC(=O)c1cccnc1Cl	-0.4%	/	-9.8%	/	20.1%[46.1 µM]	1.8%	/	11.9%

# Carrying on:
entry	SMILES	SARS PLpro yeast	Cruzain inh noDet	2A StopGo	Cruzain Triton	Marburg entry inh	RE007 growth inh	NS1 inh	Lassa entry inh
33	COc1ccc(N2C(=O)C(C)(C)C2c2c(O)ccc3ccccc23)cc1 (stereo not given)	-11.7%	/	-5.8%	/	?	-13.0%	24.7%	-19.0%[46.1 µM]
34	O=C(N/N=C/c1ccncc1)c1cc2ccccc2cc1O	1.4%	/	10.2%	/	/	6.4%	-3.6%	/
35	Cc1ccccc1Oc1nc2c(c(=O)n(C)c(=O)n2C)n1Cc1ccc(Br)cc1	/	11.5%	0.0%	?	19.3%[46.1 µM]	/	/	27.3%[46.1 µM]
36	COc1ccc(/C(N)=N/OC(=O)c2cccc([N+](=O)[O-])c2C)cc1OC	?	-2.6%	9.1%	-2.5%	-10.2%	2.7%	-0.7%	?
